Autofluor counter = compound fluorescence in toxin protease inhibitor counterscreen. compound autofluorescence counterscreen, microsphere flow cytometry; active compounds read high. fluorescence intensity (concentration not given with the values). hit rate 3.1% among 360,000. AID 624483;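 active = at least 3 SD above the mean of all compounds, about 16000 in these data; inconclusive = too few beads counted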;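 note: 100 nL of 1 mM stock went into each well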
BJeLR lethal = kills HRASV12-expressing BJeLR cells; BJeLR (HRASV12) viability, CellTiter-Glo ATP luminescence, 48 h; reference of the scale not given here; inhibition, % (no concentration beside the values); hit rate 0.17% among 300,000; AID 1554;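 active = replicate mean above 50%; inconclusive = above 50% but judged a plate artefact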;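 note: 50 nL library stock added to about 25 µL; numbers are from one replicate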
Mtb hypoxia rep = inhibitors of hypoxia-regulated fluorescent reporter in Mycobacterium tuberculosis | M. tuberculosis hypoxia-regulated fluorescent reporter, fluorescence | fluorescence inhibition, % (test concentration not listed) | hit rate 0.1% among 300,000 | AID 1159583;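 active = 35 to 45% if threefold the growth effect, above 45% if 1.5-fold the growth effect; inactive = the rest, general growth blockers included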;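 note: wells of about 50 µL received 100 nL stock; 0% = vehicle wells and 100% = reference inhibitor wells; whole bacteria with a GFP reporter of the hypoxia response; strong numbers were not always called active; many hits fall short of the cut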
PrP 5UTR inh = suppresses PrP 5' UTR mRNA reporter expression; cell-based PrP 5' UTR mRNA reporter, plate reader; inhibition, % (no concentration beside the values); hit rate 0.35% among 340,000;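 active = every replicate at 50% or more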;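 note: 0 = median of the neutral control wells; tested in H4 reporter cells; numbers are from one replicate; inactives centre near -14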
RN4220 kill = S. aureus RN4220 growth inhibition; hit rate 0.33% among 330,000; OD600, 16 h; AID 1259311; inhibition, % (test concentration not listed);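 active = z-score of -3 or lower and OD600 up to 0.18 on both plates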;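 note: plate controls were untreated cells for no effect and reference antibiotic for full effect; stock transfer was 100 nL into about 80 µL; one replicate is shown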
ugtP null kill = growth inhibition of S. aureus ugtP deletion strain | S. aureus RN4220 ugtP deletion, OD600 growth, 16 h; some inactives read as strong as hits | growth inhibition, % (concentration not given with the values) | hit rate 0.54% among 330,000;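 active = z-score under -3 and OD600 up to 0.15 on both plates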;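 note: plate controls were untreated wells for no effect and antibiotic for full effect; wells of about 80 µL received 100 nL stock; the first replicate is given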
Mtb hypoxia rep growth = also measured in Mtb hypoxia rep; calls as there; growth inhibition, %; measured here: M. tuberculosis growth (absorbance);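 0% = vehicle and 100% = reference antibiotic; read after six days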
Starred values were filed as active, the others as inactive; u = inconclusive; x = no result given.

SMILES | Autofluor counter | BJeLR lethal | Mtb hypoxia rep | Mtb hypoxia rep growth | PrP 5UTR inh | RN4220 kill | ugtP null kill
CC(NC(=O)COC(=O)c1ccc2c(c1)S(=O)(=O)N=C1CCCCCN12)C12CC3CC(CC(C3)C1)C2 (stereo not drawn) | 2221 | -4 | 2 | 2 | -41 | 1.6 | -1
CCC(CC)NC(=O)CCCSc1nc2ccccc2[nH]1 | 4972 | -8 | 6 | 0 | -6 | 9.4 | -5
CCN(CC)S(=O)(=O)c1ccc(OC)c(NC(=O)/C=C/c2ccco2)c1 | 5086 | 0 | 7 | 14 | -20 | 8.1 | 7
CCN(CC)S(=O)(=O)c1ccc(S(=O)(=O)N(CC(=O)Nc2ccccc2)Cc2ccco2)cc1 | 22492* | -1 | 14 | 7 | -23 | 1.3 | 3
CNc1nc(NN=Cc2ccc([N+](=O)[O-])cc2)nc(Nc2ccccc2)n1 | x | x | 5 | 11 | x | 6.1 | -19
Clc1ccc(CN2C3=NCCCN3c3ccccc32)cc1Cl | 4941 | 4 | 5 | 10 | -31 | 1.0 | 6
CCC1(CC)C(=O)NC(=O)NC1=Nc1ccccc1 | 1967 | 3 | 4 | -4 | -12 | -1.1 | 0
CCCCc1c(C)nn(-c2nnc3c4ccccc4n(C)c3n2)c1C | 2474 | -6 | x | x | -23 | 0.4 | 1
CCN(CC)S(=O)(=O)c1ccc(OC)c(NC(=O)c2ccc(-n3cncn3)c([N+](=O)[O-])c2)c1 | u | -2 | 3 | 7 | -15 | -0.4 | 1
Cc1ccc(NC(=O)COC(=O)COc2ccc(Cl)cc2)c([N+](=O)[O-])c1 | 2164 | 12 | 3 | -5 | -35 | 0.1 | -5
CC(=O)C(=NNc1cccc(Cl)c1)Sc1nnc(-c2ccccc2)n1-c1ccccc1 | x | x | 10 | 7 | x | 12 | 12
Cc1ccccc1-n1c(C)cc(C=NNC(=O)c2ccncc2)c1C | x | x | x | x | x | 1.5 | 9
O=C(CNC(=O)c1cccs1)NCC(=O)OCc1ccc(Cl)cc1 | 10071 | -11 | 12 | 12 | -26 | 11 | 5
N#Cc1cn(CC(=O)NCCc2c[nH]c3ccccc23)c2ccccc12 | 4081 | -11 | 3 | 1 | -10 | -4.2 | -4
N#Cc1ccc(C23CC4(C2)[C@H](CN(Cc2ccc(-c5ccccc5)cc2)[C@@H]4c2ccccc2)C3c2ccc(Cl)nc2)cc1 (stereo partly drawn) | 4613 | -11 | x | x | -15 | x | x
CC1=NN(C(=O)CCc2ccccc2O)C(O)(C(F)(F)F)C1 (stereo not drawn) | 2484 | -3 | 10 | 4 | -33 | 3.9 | -2
CC(OC(=O)/C=C/c1ccccc1)C(=O)Nc1ccc2c(c1)OCCO2 (stereo not drawn) | 8826 | x | 0 | 0 | 0 | 0.0 | 4
CC(=O)Nc1ccc(S(=O)(=O)N(C)CC(=O)Nc2ccc(Br)cc2F)cc1 | u | -8 | -5 | -6 | -7 | 4.9 | 14
COc1ccc(NC(=O)c2cn(CCC#N)nc2-c2cccs2)cc1 | 2494 | 5 | -7 | -14 | -16 | 3.2 | 4
CC(C)(C)c1ccc(C2CC2C(=O)NN=Cc2ccc[nH]2)cc1 (stereo not drawn) | x | x | 7 | -3 | x | 4.7 | 17
CCN1CCN(C(=O)c2cc3c(=O)n(C)c4ccccc4c3n2C)CC1 | 4258 | -9 | x | x | -34 | 2.0 | -1
O=C(COC(=O)C12CC3CC(CC(O)(C3)C1)C2)Nc1ccc(OC(F)F)cc1 | 5145 | x | -3 | -2 | -30 | -1.5 | -4
CCOc1ccc(S(=O)(=O)N2CCN(C(=O)c3ccc(-n4cncn4)c([N+](=O)[O-])c3)CC2)cc1 | 5843 | -5 | 9 | 4 | -8 | 1.8 | 12
Cc1ccc(C)c2c1c1ccccc1n2C | 5187 | 0 | 11 | 6 | -4 | -4.5 | 69
COc1cccc2cc(C(C)=NNC(=O)c3ccco3)oc12 | x | x | 13 | 12 | x | 2.5 | -2
CCOc1ccc(-c2nnc(N)o2)cc1 | 3179 | -4 | x | x | -7 | 1.1 | 5
CCOC(=O)C1CCCN(CC(O)=C(C#N)c2nc(-c3ccc(Cl)cc3)cs2)C1 (stereo not drawn) | x | x | -1 | -2 | x | -2.3 | 15
COc1cc(CC(C#N)(CO)c2nc3ccccc3[nH]2)ccc1OC(F)F (stereo not drawn) | 10645 | -14 | x | x | -23 | x | x
CCn1ncc(S(=O)(=O)NCc2ccco2)c1C | 5221 | 5 | 3 | 3 | -22 | 0.9 | 1
Cc1ccc(-c2cc(C(=O)NN=Cc3ccccc3)n[nH]2)o1 | x | x | 1 | 4 | x | 2.1 | 1
CSc1ccc(Cl)c(C(=O)N2CCOc3ccccc32)c1 | 4192 | -8 | 4 | 9 | 15 | 8.0 | 9
COC(=O)CSc1nc2c(c(=O)[nH]c(=O)n2C)n1CCC(C)C | 3097 | 5 | 3 | -10 | -23 | 4.7 | -4
CCOc1ccc(NC(=O)C2CC(=O)N(c3ccccc3F)C2)cc1 (stereo not drawn) | 3095 | -11 | -5 | -9 | -3 | 0.4 | 1
CC(C(=O)Nc1nc(-c2ccc(F)cc2)cs1)N1C(=O)C2CC=CCC2C1=O (stereo not drawn) | 3960 | x | 7 | 1 | 1 | 15 | 2
C[C@]12CCC3C(CC[C@H]4C[C@@H](O)CC[C@]34C)C1CC[C@@H]2N (stereo partly drawn) | 3691 | x | 19 | 8 | -17 | 4.4 | 0
Cc1nn(S(=O)(=O)c2ccccc2)c(C)c1S(=O)(=O)N1CCC(C)CC1 | 5810 | 3 | -3 | 0 | -31 | 3.7 | 1
CCn1c2ccccc2c2nnc(SCc3ccccc3)nc21 | 5277 | 7 | 4 | 6 | -32 | 4.5 | 10
CCCCn1nc2cc(C(=O)NCc3cc(C(F)(F)F)cc(C(F)(F)F)c3)ccc2c1OC | 3492 | 3 | 12 | 10 | -21 | 5.9 | 6
CN1CCN(C(CNC(=O)C(=O)Nc2ccc3c(c2)OCCO3)c2ccc(F)cc2)CC1 (stereo not drawn) | 6639 | 0 | 8 | 1 | -4 | 1.1 | 3
C#CCOCCOCCOCCNc1nc(N2CCOCC2)nc(N2CCN(C(=O)C(CCC(=O)O)n3cc(C(N)CCCCN)nn3)CC2)n1 (stereo not drawn) | x | x | 3 | 6 | x | 5.3 | -10
C[C@H](CO)N1C[C@H](C)[C@@H](CN(C)C(=O)NC2CCCCC2)Oc2c(NC(=O)Nc3ccc4c(c3)OCO4)cccc2C1=O | 3992 | x | 0 | 1 | -17 | -0.2 | 8
O=C(O)c1cc(-c2ccco2)nn1-c1ccc(Cl)cc1 | 3670 | 2 | -11 | 5 | -8 | -8.0 | -1
Cc1cc(C(C)(C)C)cc(S(=O)(=O)NCC(=O)O)c1C | 2460 | -3 | 4 | -1 | -19 | -13 | -7
CCOCCCNC(=O)c1c(N)n(-c2ccc3c(c2)OCO3)c2nc3ccccc3nc12 | 6122 | 0 | 14 | 6 | -7 | 1.1 | 1
Cc1cc(C)c(NC(=O)c2ccc[n+](Cc3ccc([N+](=O)[O-])cc3)c2)c(C)c1 | 3715 | -3 | 5 | 8 | 5 | 1.5 | -2
Cc1cc(C)nc(Nc2n[nH]c(-c3ccc(N)cc3)n2)n1 | u | -11 | 2 | 5 | -44 | 0.1 | -8
O=C(CSc1nncn1-c1ccccc1)c1c[nH]c2ccccc12 | 4658 | -1 | -6 | 7 | -9 | 2.2 | -3
CNS(=O)(=O)c1cccc(C(=O)OCC(=O)/C=C2/N(C)c3ccccc3C2(C)C)c1 | 2572 | -14 | 5 | 6 | -10 | 6.4 | 0
COc1ccccc1N=NC1=C(O)CC(C)(C)CC1=O | 2453 | -3 | 13 | 0 | -13 | 5.1 | -8
CCCN1C(=O)C2(SC(NC(C)=O)=NN2C(C)=O)c2cc(C)ccc21 (stereo not drawn) | 4164 | -10 | -3 | -10 | -12 | 10 | 6
OC(CNCC1CCCO1)Cn1c2ccc(Cl)cc2c2cc(Cl)ccc21 (stereo not drawn) | 3999 | 6 | 14 | 16 | -15 | 48 | -19
Cc1ccc(-c2nnc(SCC(=O)N/N=C/c3ccc(C)s3)n2-c2ccc(C)cc2)cc1 | 2498 | -25 | x | x | -12 | x | x
O=c1[nH][nH]c(-c2ccccc2O)c1C(C[N+](=O)[O-])c1ccccc1 (stereo not drawn) | 2023 | 2 | x | x | -16 | x | x
CCc1nnc(NN=Cc2ccccc2Cl)n1N | x | x | 7 | -5 | x | 4.4 | -4
Cc1ccc(C(=O)NC2CCN(C(=O)Nc3ccccc3Cl)CC2)cc1 | 3418 | 2 | -6 | 4 | -3 | -1.1 | 4
CC1(C)CC(=O)C(C(C2=C(O)CC(C)(C)CC2=O)c2ccco2)C(=O)C1 (stereo not drawn) | 9188 | -21 | -98 | -14 | -7 | 3.4 | -9
Cc1ccc(S(=O)(=O)N[C@H](C(=O)OCn2nnc3ccccc3c2=O)C(C)C)cc1 | 2966 | -1 | x | x | -7 | -10.0 | 4
COC(=O)c1sccc1NC(=O)c1ccncc1 | 4401 | -1 | -69 | 9 | -11 | 9.7 | -5
Cc1c(CNCCc2ccc(Cl)cc2)c(C(=O)O)c(C)n1Cc1ccccc1 | 5029 | 2 | 6 | 0 | -32 | -4.1 | -4
Cc1ccc(-c2cc(C(=O)N3CCCC3)no2)cc1 | 6480 | 1 | 23 | 25 | 19 | 4.9 | 0

Compound profiles, from the list above. Order of screens: Autofluor counter, BJeLR lethal, Mtb hypoxia rep, Mtb hypoxia rep growth, PrP 5UTR inh, RN4220 kill, ugtP null kill
CCCN1C(=O)C2(SC(NC(C)=O)=NN2C(C)=O)c2cc(C)ccc21 (stereo not drawn) is listed with 4164, -10, -3, -10, -12, 10, 6
CC(=O)C(=NNc1cccc(Cl)c1)Sc1nnc(-c2ccccc2)n1-c1ccccc1 is listed with x, x, 10, 7, x, 12, 12
COc1cccc2cc(C(C)=NNC(=O)c3ccco3)oc12 is listed with x, x, 13, 12, x, 2.5, -2
Cc1nn(S(=O)(=O)c2ccccc2)c(C)c1S(=O)(=O)N1CCC(C)CC1 is listed with 5810, 3, -3, 0, -31, 3.7, 1

Carrying on:
SMILES | Autofluor counter | BJeLR lethal | Mtb hypoxia rep | Mtb hypoxia rep growth | PrP 5UTR inh | RN4220 kill | ugtP null kill
COc1ccccc1CNC(=O)C(NC(=O)c1ccccc1C)C(C)C (stereo not drawn) | 4856 | 6 | -1 | -2 | -69 | 2.3 | 2
Cc1ccc2c(CC(=O)N3CCN(S(=O)(=O)c4ccccc4)CC3)coc2c1 | 4451 | x | 3 | -5 | -13 | 4.6 | 0
COc1ccc(OC)c(NC(=O)C2CC2c2ccccc2)c1 (stereo not drawn) | 3580 | -5 | 7 | 4 | 14 | 5.0 | 5
COc1ccc(C(=O)C(C)OC(=O)c2cccc(S(=O)(=O)Nc3c(C)n(C)n(-c4ccccc4)c3=O)c2)cc1 (stereo not drawn) | 3489 | x | 0 | -2 | -7 | 6.0 | -2
COc1ccc2nc(SCC(=O)Nc3ccc4c(c3)OCCO4)[nH]c2c1 | 11223 | -19 | 4 | 8 | x | 4.2 | 9
C=CCOc1ccc(C=Nc2ccc(OC)cc2)c(O)c1 | 4767 | -5 | -4 | 2 | -22 | -2.7 | -1
O=C(Cc1ccccc1Cl)Nc1cccc(S(=O)(=O)N2CCCCCC2)c1 | 3814 | x | -8 | 2 | -15 | 6.7 | 9
Cc1cc(-c2ccccc2)c(C#N)c(=S)[nH]1 | 10952 | 2 | 3 | -1 | -27 | 1.5 | 4
COc1cc(S(=O)(=O)N2CCCN(C)CC2)ccc1NC(C)=O | 5223 | -1 | -1 | -5 | -3 | 8.4 | 12
Cc1ccc(C(=O)Nc2ccc3c(c2)ncn3C)cc1 | 4479 | -6 | x | x | -49 | -0.7 | -4
CCN(C(=O)COC(=O)c1ccc(N2C(=O)c3ccccc3C2=O)cc1)C1CCS(=O)(=O)C1 (stereo not drawn) | 4463 | 2 | 7 | 1 | -50 | 4.1 | 5
CCOc1ccc(S(=O)(=O)NCCC(=O)Nc2ccncc2)cc1 | 5415 | 6 | 9 | 5 | 1 | 5.9 | 8
CC(=O)c1cccc(NC(=O)NCCS(C)=O)c1 (stereo not drawn) | 10883 | 0 | -3 | 8 | -27 | 0.5 | -2
COc1cc(NC(=O)c2ccc(-c3csc(C)n3)cc2)c(OC)cc1Cl | 4269 | 0 | 6 | 0 | -20 | 1.6 | 7

Compound activity (PubChem BioAssay)

Random draw from the library; overall some 4% were active at least once.
